From PubChem BioAssay
Six1-Eya2 inh – inhibitors of human Six1/Eya2 interaction. AlphaScreen GST-Six1/His-Eya2 binding, biochemical; hits give low values; control for the full effect not named in the record. activity change, % (concentration not given with the values). hit rate 0.56% among 360,000; in the data active = activity change below about -65%; inconclusive = about -30% to -65%; inactive = above about -30%; note: % is set by controls: 0 for no effect and ±100 for the full control effect
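Compounds are tested against tagged Six1 and Eya2 proteins bridged by glutathione donor and nickel acceptor beads; after a one-hour incubation at 37 °C without light, AlphaScreen emission is recorded.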
PINK1 modulator – modulators of PINK1 expression; hit rate 0.2% among 410,000; PINK1 immunofluorescence, high-content cytometry, 24 h; Potency, µM (highest dose often 76.6 µM), without a hit: at the top dose activation (PINK1 increase), hits mostly activators; AID 624263; active = well fitted activation curve with a large enough effect; inconclusive = small, poorly fitted or top-dose-only effect; inactive = flat fitted curve, though single readings scatter; cell line not stated here;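 note: potency is the fitted concentration of half-maximal effect; % of control where 0% means no effect; nearly all actives have a fitted effect of over 65% in size; a mitochondrial uncoupler was the plate control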
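PINK1 protein, normally rapidly degraded, was detected by immunofluorescence after 24 hour compound treatment of a stable cell line. Titration data (5 concentrations) came from laser-scanning cytometry, with CCCP-treated wells as controls.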
TRPML1 blocker – human mucolipin-1 channel inhibition; Q9GZU1; TRPML1-inducible cells, Ca2+ dye fluorescence, FDSS; hits give low values; inhibition of EC80 agonist-evoked calcium signal; activity change, negative = inhibition, % (test concentration not listed); hit rate 0.02% among 390,000; AID 624415; in the data active means activity change below about -50%; inconclusive means about -30% to -50%; inactive means above about -30%;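 note: stimulus is agonist 54-4 at its EC80 concentration; % is set by controls: 0 for no effect and ±100 for the full control effect; compound concentration not given in the record; the text of the record puts the active cut at -80%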
Target sequence (Q9GZU1 whole entry, looked up): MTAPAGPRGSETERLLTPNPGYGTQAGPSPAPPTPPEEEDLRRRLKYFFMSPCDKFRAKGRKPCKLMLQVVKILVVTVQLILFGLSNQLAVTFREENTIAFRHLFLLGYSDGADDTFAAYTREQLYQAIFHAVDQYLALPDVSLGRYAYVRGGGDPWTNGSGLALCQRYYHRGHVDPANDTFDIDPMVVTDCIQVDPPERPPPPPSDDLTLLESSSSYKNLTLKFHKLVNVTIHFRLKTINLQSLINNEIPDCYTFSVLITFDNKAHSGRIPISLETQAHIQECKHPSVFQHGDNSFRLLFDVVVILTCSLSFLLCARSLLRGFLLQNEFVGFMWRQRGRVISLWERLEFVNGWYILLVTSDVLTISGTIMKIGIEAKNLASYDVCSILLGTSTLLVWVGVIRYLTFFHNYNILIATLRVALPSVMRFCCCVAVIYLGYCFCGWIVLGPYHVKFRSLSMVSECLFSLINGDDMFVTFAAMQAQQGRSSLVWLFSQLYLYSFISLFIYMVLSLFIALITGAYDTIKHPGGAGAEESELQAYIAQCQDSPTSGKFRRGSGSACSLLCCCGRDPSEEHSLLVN
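Tet-induced TRPML1-DL cells loaded with Ca8 no-wash calcium dye were read kinetically on FDSS. Compound addition was followed by EC80 agonist 54-4 (4 uM final); inhibition was read over 110 s.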
CtBP-E1A blk – blocks the CtBP interaction with E1A; AlphaScreen GST-E1A/His-CtBP binding, 1536-well; hits give low values; control for the full effect not named in the record; activity change, % (test concentration not listed); hit rate 0.49% among 340,000; in the data active means activity change below about -65%; inconclusive means about -30% to -65%; inactive means above about -30%; note: % is set by controls: 0 for no effect and ±100 for the full control effect; compound concentration not given in the record
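GST-E1A and His-tagged CtBP (125 nM each as 5X stock) were preincubated with pin-transferred compound for 2 h at 37 °C in the dark, then glutathione donor and nickel acceptor beads were added for 1 h before AlphaScreen reading.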
D2 ag – human D2 receptor agonism in beta-arrestin assay; hit rate 0.084% among 360,000; activation, % (test concentration not listed); P14416; DiscoveRx PathHunter D2 beta-arrestin, luminescence, 90 min; 100% = 57 uM dopamine signal; in the data active = activation above about 40%; inconclusive = about 15% to 40%; inactive = below about 15%; note: compound concentration not given in the record; the text of the record calls up to 30% inactive
Target sequence (P14416 whole entry, looked up): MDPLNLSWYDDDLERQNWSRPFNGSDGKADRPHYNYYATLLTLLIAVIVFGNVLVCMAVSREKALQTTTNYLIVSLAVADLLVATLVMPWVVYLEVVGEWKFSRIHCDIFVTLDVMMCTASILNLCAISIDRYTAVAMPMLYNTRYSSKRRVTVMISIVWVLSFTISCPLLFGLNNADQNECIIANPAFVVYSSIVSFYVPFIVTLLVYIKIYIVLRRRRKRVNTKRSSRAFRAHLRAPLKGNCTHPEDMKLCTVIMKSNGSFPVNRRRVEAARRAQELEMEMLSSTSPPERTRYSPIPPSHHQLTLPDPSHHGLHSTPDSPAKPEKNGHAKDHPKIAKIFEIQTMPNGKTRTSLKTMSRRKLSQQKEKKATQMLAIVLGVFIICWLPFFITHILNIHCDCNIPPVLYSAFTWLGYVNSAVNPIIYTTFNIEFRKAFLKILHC
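DiscoveRx PathHunter D2 beta-arrestin cells (2,100/well) attached overnight, then compound-stimulated 90 min at 37 C in HBSS/10 mM HEPES/0.1% Tween-20 buffer; beta-galactosidase complementation read by luminescence after 1 h at ambient temperature. Dopamine 57 uM final (EC100) as control.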
TRPML1 ag – human mucolipin-1 channel agonism; Q9GZU1; TRPML1-expressing cells, Ca2+ dye fluorescence, FDSS; host cell line not named in the record; reference of the full effect not given here; activation, % (test concentration not listed); hit rate 0.12% among 410,000; in the data active = activation above about 50%; inconclusive = about 30% to 50%; inactive = below about 30%; note: 0% is about no effect; the text of the record puts the active cut at 80%
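Tet-induced TRPML1-DL cells, 1,500 per well, cultured overnight, were loaded with a no-wash Ca2+ dye for 45–90 min. Calcium fluorescence was recorded on the FDSS for 110 s after compound addition, before the EC80 agonist (4 uM 54-4) was added.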
Active calls of the source: *; ? = inconclusive; . = no result given; & = joins results of further samples; [ ] = remark or other dose. Compounds were not picked by outcome. About 1% of those tested had a hit in this group.

canonical_smiles	TRPML1 ag	Six1-Eya2 inh	TRPML1 blocker	PINK1 modulator	D2 ag	CtBP-E1A blk
Cn1c(N)c(C(=O)COC(=O)COc2ccccc2Cl)c(=O)n(C)c1=O	-0.1	-6	6	3.9%	1.6	-26
Cc1ccc(/C=N/N2CCOCC2)s1	0.2	2	-19	-0.7%	-0.9	1
C[C@H](CO)N1C[C@H](C)[C@@H](CN(C)C(=O)Cc2ccccc2)OCCCC[C@H](C)Oc2ccc(NC(=O)NC3CCCCC3)cc2C1=O	-0.5	-5	-12	4.1%	-9.9	-2
CCSc1nnc(NC(=O)C2CSC3(C)CCC(=O)N23)s1 (stereo not drawn)	-0.4	10	-4	0.5%	-2.1	.
COc1ccc(Cc2nnc(NC(=O)c3ccc(OC)c(OC)c3)s2)cc1	0.5	3	53	3.4%	-1.0	0
CCc1c(C#N)c(N)nc(SCC(=O)OCc2ccccc2)c1C#N	3.7	6	3	-0.2%	0.1	0
COCCNC(=O)CNS(=O)(=O)c1ccc2nc(C)sc2c1	-0.1	7	36	-1.0%	-0.3	3
CCOc1ccc(NC(=O)CC2C(=O)N(c3ccc(OC)cc3)C(=O)N2Cc2ccc(OC)cc2)cc1 (stereo not drawn)	0.0	7	-1	-0.3%	-3.7	1
O=C(c1ccc(Cl)cc1)N1CCCCC1CCN1CCOCC1 (stereo not drawn)	1.0	.	-5	-0.4%	.	.
c1ccc(Cc2noc(CN3CCC(CN4CCOCC4)CC3)n2)cc1	0.2	-9	-2	1.4%	0.5	0
CC(C)c1ccc(OCC(=O)N(c2ccccn2)C2CCCCC2)cc1	1.4	39	-12	?	-4.1	21
O=C(CSc1nnnn1-c1cccnc1)Nc1cccc(Cl)c1	-0.5	-1	6	1.7%	1.5	5
Cc1nc(CN(C)C(=O)c2cc(COc3ccc4ncccc4c3)on2)cs1	-0.8	-3	-5	2.8%	3.0	6
CC(C)(C)c1nnc(NS(=O)(=O)c2ccc([N+](=O)[O-])cc2)s1	.	14	.	1.6%	8.8	.
O=C(OCn1nnc2ccccc2c1=O)c1cc2ccccc2o1	-0.5	3	29	2.9%	-0.1	-1
CCCCNC(=O)OCC(CC)NC(=O)OCC(C)C (stereo not drawn)	-0.6	3	31	3.1%	-2.5	6
O=C(c1ccccc1)C1CCN(CC(=O)N2CCN(c3ccccc3)CC2)CC1	0.3	1	-11	1.4%	-4.0	.
CC1(C)NC(=O)N(CCOc2cccc(Oc3ccccc3)c2)C1=O	0.2	0	4	0.1%[38.3 µM]	-2.2	-1
FC(F)(F)c1nc(NCc2cccnc2)c2ccccc2n1	0.6	11	-6	0.3%	2.3	4
OC(c1ccccc1)(c1nc(-c2ccccc2)cs1)C(F)(F)F (stereo not drawn)	-0.1	4	.	0.1%	4.6	1
CCOC(=O)C1(Cc2ccc(OC)cc2)CCN(C(=O)c2ccc3[nH]ccc3c2)CC1	0.9	-8	32	1.1%	-5.2	-3
O=c1[nH]cc(C(F)(F)F)cc1NS(=O)(=O)c1ccc([N+](=O)[O-])cc1	-1.2	2	-5	0.3%	-0.2	-8
Cc1nc2ccccc2c2oc(C(=O)NCCN3CCN(C)CC3)cc12	-0.2	-17	13	1.7%	-4.5	-11
CCOC(=O)CSc1nnc([C@@H](NC(=O)OC(C)(C)C)C(C)C)o1	0.0	28	1	1.0%	-4.9	0
Cc1ccccc1NC(=O)C1CCCN(C(=O)Nc2ccc(F)cc2)C1 (stereo not drawn)	-0.2	3	-5	0.0%	-4.1	2

(next part)
canonical_smiles	TRPML1 ag	Six1-Eya2 inh	TRPML1 blocker	PINK1 modulator	D2 ag	CtBP-E1A blk
O=C(O)C(Cc1c[nH]c2ccccc12)NS(=O)(=O)c1ccc(Cl)c(C(F)(F)F)c1 (stereo not drawn)	0.4	-2	-11	2.7%	-1.7	-4
S=c1nc(-c2ccccc2)[nH]n1-c1ccccc1	0.0	-8	-12	-1.8%[38.3 µM]	-3.5	-7
CC(=O)N1CCCN(C(=O)c2ccc3nc(Cc4ccccc4F)oc3c2)CC1	-0.3	-1	-5	5.3%	-2.9	8
C=C(C)C(=O)N1CC2(CC(c3cccc(NC(=O)/C=C\C)c3)=NO2)C[C@H]1C(N)=O (stereo partly drawn)	-0.5	4	6	2.6%	1.2	7
CC(=O)NC1=C(N(C)C2CCS(=O)(=O)C2)C(=O)c2ccccc2C1=O (stereo not drawn)	-1.8	2	-8	4.7%	6.5	0
Cc1c(C(=O)N/N=C/c2ccc(Cl)cc2)[nH]c2ccc(Cl)cc12	1.2	-4	6	0.0%	?	.
O=C(CSc1nc2c(c(C(F)(F)F)n1)CCc1ccccc1-2)NCc1ccco1	-0.3	0	-4	21%[38.3 µM]	-1.7	-11
Cc1noc(C)c1S(=O)(=O)N1CCCC1C(=O)NC(C)(C)C (stereo not drawn)	5.4	8	5	1.2%	4.4	.
COc1ccc(C(C)(C)C)cc1NC(=O)CCc1c(C)noc1C	0.5	15	8	-0.1%	-4.1	24
O=C(Nc1ccc(-c2cscn2)cc1)C1CCCN(Cc2ccccc2)C1 (stereo not drawn)	0.3	-5	24	3.7%	-2.0	-24
CC(=O)Nc1ccc(C(O)(C(F)(F)F)C(F)(F)F)cc1	-0.2	-6	2	-0.9%	-2.0	-1
CCOc1cccc(C(=O)Nc2ccc(-c3nc4cc(C)cc(C)c4o3)cc2)c1	-0.6	.	15	1.7%	.	.
Cc1cc(C)nc(NS(=O)(=O)c2ccccc2)n1	-0.3	-2	-15	.	-2.9	0
Cc1ccc(SCC(=O)OCC(=O)NCCc2ccc(S(N)(=O)=O)cc2)c(C)c1	0.2	5	5	-1.9%	-3.1	2
CCOC(=O)C(=O)Cc1cccnn1	0.8	?	0	0.1%	0.9	-2
Cn1c(=O)c2sccc2n2c(CCCC(=O)NCc3ccc(F)cc3)nnc12	-0.2	?	-10	1.1%	-0.9	?
COc1ccc(CNCCCSc2nnnn2-c2ccccc2)cc1	0.0	.	3	0.8%	.	.
CC(C)N(C(=O)[C@H]1C[C@H](CC(=O)NCCC2=CCCCC2)C(=O)N2CCc3c([nH]c4ccc(Cl)cc34)[C@]12C)C(C)C	-0.1	0	-18	0.7%	-0.7	0
CC(C)n1c(SCC(=O)Nc2ccccc2)nc2c1c(=O)n(C)c(=O)n2C	-0.4	?	-20	2.1%	-1.2	4
COc1ccc(C(=O)NCCS(=O)(=O)NCc2ccccc2)cc1	0.6	-1	3	-3.4%	-1.4	8
COc1ccc(NC(=O)CC2C(=O)N(c3ccccc3)C(=O)N2CCC2=CCCCC2)cc1 (stereo not drawn)	1.0	.	-4	0.8%	.	.
CCCN(C)C[C@@H]1OCCCC[C@@H](C)Oc2ccc(NC(=O)c3ccccc3)cc2C(=O)N([C@H](C)CO)C[C@@H]1C	1.4	14	2	9.4%	-2.6	-15
O=C(CSc1nnc(COc2cccc3cccnc23)o1)N1CCCC1	-0.2	-16	3	-0.2%	-0.2	9
COC(=O)CSc1nc2sccc2c(=O)n1-c1ccccc1	-0.1	-2	10	1.8%	-4.3	2
O=C(Nc1sc2c(c1C(=O)c1ccc(Cl)cc1)CCCC2)c1cccnc1	-0.7	?	-3	4.7%[38.3 µM]	-3.3	-29

Only PINK1 modulator, for some of the entries so far:
| Compound | PINK1 modulator |
| --- | --- |
| CC(=O)Nc1ccc(C(O)(C(F)(F)F)C(F)(F)F)cc1 | -0.9% |
| CCOc1cccc(C(=O)Nc2ccc(-c3nc4cc(C)cc(C)c4o3)cc2)c1 | 1.7% |

Quoted at random: 3 entries already listed.
canonical_smiles	TRPML1 ag	Six1-Eya2 inh	TRPML1 blocker	PINK1 modulator	D2 ag	CtBP-E1A blk
O=C(Nc1sc2c(c1C(=O)c1ccc(Cl)cc1)CCCC2)c1cccnc1	-0.7	?	-3	4.7%[38.3 µM]	-3.3	-29
COc1ccc(CNCCCSc2nnnn2-c2ccccc2)cc1	0.0	.	3	0.8%	.	.
O=C(CSc1nc2c(c(C(F)(F)F)n1)CCc1ccccc1-2)NCc1ccco1	-0.3	0	-4	21%[38.3 µM]	-1.7	-11

Further results follow.
canonical_smiles	TRPML1 ag	Six1-Eya2 inh	TRPML1 blocker	PINK1 modulator	D2 ag	CtBP-E1A blk
Cc1ccc(C(=O)COC(=O)CCCC(=O)Nc2cc(C(F)(F)F)ccc2Cl)cc1C	1.8&1.4	13	9&-9	-0.2%&-0.8%	-0.4	10
Cc1nn(-c2ccccc2)c(Cl)c1C(=O)Nc1ccc(N2CCOCC2)cc1	-0.8	2	14	-1.2%	-10	-1
CCC(=O)OC1(C)C(=O)C=C2C=C(CCCC(=O)OC)OC=C2C1=O (stereo not drawn)	1.0	-13	22	-0.9%	-1.9	-12
CCn1c(=N)c(S(=O)(=O)c2ccccc2)cc2c(=O)n3ccccc3nc21	-0.5	-2	-21	7.6%	-0.8	-2
O=C(Nc1cccnc1)C12CC3CC(CC(C3)C1)C2	-0.8	4	-1	1.9%	-7.4	-11
COc1cccc(NC(=O)Cc2nc(-c3ccccc3)sc2-c2ccc(C)cc2)c1	0.5	-7	-16	1.6%	3.8	1
CCOc1nc(-c2ccc(Cl)cc2)nc2ccccc12	0.8	12	-16	-0.6%	-2.1	3
CCOC(=O)CNc1c(-c2ccc(O)cc2)nc2ccc(Cl)cn12	1.5	-19	6	0.2%[38.3 µM]	0.5	-26
Cc1ccc(C(=O)NC(C)c2ccc(-n3ccnc3)cc2)o1 (stereo not drawn)	-0.2	5	-5	1.1%	0.4	2
Cc1oc(-c2ccccc2Cl)nc1CS(=O)CC(=O)NCc1ccco1 (stereo not drawn)	0.7	4	11	1.8%	-4.4	.
Cc1cc2[nH]c(=O)c(=O)[nH]c2cc1S(=O)(=O)Nc1cccc(C(F)(F)F)c1	2.6	.	-12	1.1%	.	.
Cc1cc(/C=C2/C(=N)N3C(c4ccccc4)=CSC3=NC2=O)c(C)n1-c1ccccc1	-0.7	2	8	-0.5%	-5.9	5
COCCn1c(SCc2nnc(-c3ccccc3)o2)nc2sc3c(c2c1=O)CCC3	1.3	-1	-6	4.9%	-1.1	-23
CC1NC(=O)N(C)C2NC(=O)N(C)C(c3ccccc3)C12 (stereo not drawn)	-0.4	0	35	-0.4%	-2.5	-1
COc1ccc(NC(=S)NC(=O)c2csnn2)cc1	-0.6	-12	-1	6.2%	-8.7	-25
Clc1ccc(-c2nnnn2-c2ccc(Cl)cc2)cc1	0.8	9	5	2.9%	-4.9	15
CC(=O)Nc1ccc(S(=O)(=O)Nc2cccc(-n3cnnn3)c2)cc1	0.2	0	-7	0.3%	1.0	8
O=C(COC(=O)CNC(=O)c1cccs1)Nc1ccc(C(F)(F)F)cc1[N+](=O)[O-]	1.6	4	-16	3.4%	4.9	1
COC(=O)C1=C(N)Oc2cc(C)n(Cc3cccnc3)c(=O)c2C1c1cccc(OC)c1OC (stereo not drawn)	0.4	0	-18	-1.0%	-5.3	2
